Cruzain inh noDet: cruzain (T. cruzi) inhibition without detergent; 2.3% of 200,000 active; P25779; purified cruzain, Z-FR-AMC fluorescence, no detergent; Potency, µM, without a hit: max response, negative = inhibition, most hits filed as inhibitors; AID 1476; active = well fitted curve in the direction sought with a large enough effect; inconclusive = small, poorly fitted or top-dose-only effect, or another doubt; inactive = no such curve, though single readings can be large; an effect the other way counts as inactive or inconclusive;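 note: plate controls were enzyme without inhibitor for no effect and buffer without enzyme for full effect; nearly all actives have a fitted effect of over 40% in size; top concentration of the series not given in the record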
Target sequence (P25779 123-467 limits assumed): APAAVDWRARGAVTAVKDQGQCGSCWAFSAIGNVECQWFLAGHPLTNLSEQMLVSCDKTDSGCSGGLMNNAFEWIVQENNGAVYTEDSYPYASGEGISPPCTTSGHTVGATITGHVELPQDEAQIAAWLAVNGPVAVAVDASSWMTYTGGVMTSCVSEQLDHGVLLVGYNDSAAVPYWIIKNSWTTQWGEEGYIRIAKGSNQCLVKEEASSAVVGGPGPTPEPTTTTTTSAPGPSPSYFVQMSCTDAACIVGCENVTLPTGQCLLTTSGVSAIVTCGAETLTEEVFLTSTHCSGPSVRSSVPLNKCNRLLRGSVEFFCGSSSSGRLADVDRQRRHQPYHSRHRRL
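Detergent-free condition (0.00005% Triton X-100) in acetate buffer pH 5.5 with DTT. 1.5 nM enzyme and compound were pre-mixed 15 min, then 2 uM Z-FR-AMC substrate added; reaction progress from fluorescence change between first and third reads (60 s).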
SARS PLpro yeast: SARS-CoV PLP inhibition in yeast; 0.19% of 330,000 active; AID 485353; Potency, µM (top dose mostly 32.9 µM), without a hit: at the highest dose activity, positive = growth rescue; S. cerevisiae expressing SARS-CoV PLpro, growth rescue; control for the full effect not named in the record; note: 0% is about no effect; nearly all actives have a fitted effect of over 55% in size; growth read by luminescence after 48 h
MARV entry inh: Marburg virus entry inhibition; Marburg virus pseudotyped entry inhibition, cell reporter; control for the full effect not named in the record; about a third of the inactives were read at about 46 µM; Potency, µM (doses to about 37.8 µM), without a hit: at the highest dose activity change, negative = inhibition, usual class: inhibitors; 1.8% of 300,000 active; AID 540276; active = well fitted inhibition curve with a large enough effect; inconclusive = small, poorly fitted or top-dose-only effect, or effect the other way; inactive = flat fitted curve, though single readings scatter; tested in HEK293 cells; about a fifth of its hits are not listed in these tables; note: % is set by controls: 0 for no effect and ±100 for the full control effect; luciferase read-out
StopGo reporter: FMDV 2A StopGo reporter, luciferase signal | 1.2% of 410,000 active | human cells with a luciferase reporter of 2A StopGo recoding; control for the full effect not named in the record | Potency, µM (series often up to 57.9 µM), for inactives: top-dose signal change, negative = less light | AID 1159524; active = well fitted falling curve with a large enough effect; inconclusive = small, poorly fitted or top-dose-only effect; inactive = no such curve, though single readings can be large or run the other way; tested in HEK293T cells; note: % is set by controls: 0 for no effect and ±100 for the full control effect; nearly all actives have a fitted effect of over 45% in size; luciferase light after 4 h
Cruzain inh Det: blocks cruzain activity in presence of Triton detergent; 0.43% of 200,000 active; purified cruzain, Z-FR-AMC fluorescence, 0.01% Triton; Potency, µM, inactives show max response, negative = inhibition, hits mostly inhibitors; AID 1478; active = well fitted curve in the direction sought with a large enough effect; inconclusive = small, poorly fitted or top-dose-only effect, or another doubt; inactive = no such curve, though single readings can be large; an effect the other way counts as inactive or inconclusive;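 note: plate controls were neutral wells for no effect and buffer without enzyme for full effect; nearly all actives have a fitted effect of over 40% in size; top concentration of the series not given in the record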
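15 min RT preincubation of 1.5 nM cruzain with compound, then 2 uM Z-FR-AMC added; kinetic AMC fluorescence, 60 s delta. Triton X-100 0.01%, pH 5.5.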
NS1 function inh: inhibitors of influenza NS1 protein function. S. cerevisiae slowed by influenza A NS1, growth recovery by OD600. Potency, µM (highest dose often 46.1 µM), without a hit: at the highest dose activity, positive = more growth. 0.4% of 270,000 active; note: actives are rising curves; nearly all actives have a fitted effect of over 50% in size
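OD600 was taken as the measure of yeast growth restored by compound in an NS1-expressing S. cerevisiae strain. Cells had been washed out of glucose medium and diluted 1:100 into galactose -URA medium, pH 6.0.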
Lassa entry inh: Lassa virus entry inhibition | Lassa virus pseudotype entry inhibition, cell reporter; control for the full effect not named in the record | Potency, µM (top dose mostly 37.9 µM), for inactives: top-dose activity change, negative = inhibition, most hits filed as inhibitors | 1.2% of 300,000 active | AID 540256; active means well fitted inhibition curve with a large enough effect; inconclusive means small, poorly fitted or top-dose-only effect, or effect the other way; inactive means flat fitted curve, though single readings scatter; tested in HEK293 cells; note: % is set by controls: 0 for no effect and ±100 for the full control effect; nearly all actives have a fitted effect of over 50% in size; luciferase read-out
RE007 growth inh: less growth of the S. pombe RE007 Vpr strain. S. pombe RE007 Vpr strain, BacTiter-Glo ATP luminescence, 24 h; control for the full effect not named in the record. Potency, µM (highest dose often 92.2 µM), for the others: top-dose activity change, negative = less growth. 0.21% of 360,000 active; active = well fitted falling curve with a large enough effect; inconclusive = small, poorly fitted or top-dose-only effect; inactive = no such curve, though single readings can be large or run the other way;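 note: % is set by controls: 0 for no effect and ±100 for the full control effect; nearly all actives have a fitted effect of over 50% in size; the assay follows cell death caused by Vpr and the record does not say whether a fall means rescue or toxicity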
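Fission yeast RE007 carrying one integrated HIV-1 vpr copy, seeded at OD 0.01 in PMG+AL medium with 23 nL pinned compound. Grown 24 h at 30 degrees; viability read by BacTiter-Glo luminescence after 5 min.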
An asterisk follows results filed as active; ? = inconclusive; . = no result given; & = joins results of further samples; [ ] = remark or other dose. Unless noted, calls come from the whole dose curve; as a rule, active means well fitted rising curve with a large enough effect; inconclusive means small, poorly fitted or top-dose-only effect; inactive means no such curve, though single readings can be large or run the other way. Potency is the fitted concentration of half-maximal effect.

SMILES	Cruzain inh noDet	SARS PLpro yeast	MARV entry inh	StopGo reporter	Cruzain inh Det	NS1 function inh	Lassa entry inh	RE007 growth inh
COC(=O)C1=C(C)NC(=O)NC1c1ccccc1Cl (stereo not drawn)	.	3%	.	-13%	.	12%	.	2%
CCOc1ccc(C2(C#N)CC[N+](C)(C)CC2)cc1	-4%	3%	7%	-16%	5.5%	11%	8%	4%
CN(c1cccc(NC(=O)c2ccccc2N(C)S(=O)(=O)c2ccccc2)c1)S(C)(=O)=O	8%	17%	18%	-1%	-2.8%	-6%	?	4%
COc1ccc(CN2CCNC(=O)C2CC(=O)N(C)CCc2cnn(C)c2)c(F)c1 (stereo not drawn)	.	-5%	.	-11%	.	-8%	.	5%
CCCCNC(=O)[C@@H]1CSC2c3ccccc3C(=O)N21 (stereo partly drawn)	.	-1%	?	-21%	.	3%	1%[46.1 µM]	-9%
O=C(NCC(c1ccccc1)c1ccccc1)c1nn(-c2ccccc2F)nc1CO	11%	.	-9%[46.1 µM]	10µM*	-3.5%	.	?	.
CC1(C(=O)O)CC(C)(C(=O)O)CC(C)(C(=O)O)C1 (stereo not drawn)	-5%	2%	-12%	?	-4.9%	3%	11%	28%
Cc1nnc(NC(=O)CN2CC(C)OC(C)C2)s1 (stereo not drawn)	.	1%	-3%[46.1 µM]	10%	.	14%	-2%[46.1 µM]	0%
Cc1cc(S(=O)(=O)c2ccc([N+](=O)[O-])cn2)ccc1Br	.	.	10µM*	8.9µM*	.	.	?	?
CCCCOc1cccc(C2C(C(=O)c3cccs3)=C(O)C(=O)N2Cc2cccnc2)c1 (stereo not drawn)	?	7%	10%	42%[activator]	-4.7%	15%	7%	14%
COc1ccc(OC)c(NC(=O)CSC2=NCCS2)c1	-7%	2%	-7%	?	0.0%	13%	20%	-11%
O=C(O)C(=O)/C(=C\c1cccc(Cl)c1)c1ccc2ccccc2n1	.	-5%	5%[46.1 µM]	58%[activator]	.	5%	1%	5%
O=c1oc2ccccc2cc1-c1ccc(O)cc1O	-11%	?	2%	17%	-5.2%	1%	2%	17%
CNc1nc(C)c(C(=O)OCC(=O)OC)s1	-14%	12%	30%	24%	-3.7%	-2%	12%	-20%
FC(F)(F)c1cnc(Sc2ncn[nH]2)c(Cl)c1	.	-3%	-1%[46.1 µM]	1%	.	.	10%[46.1 µM]	-21%
CCOC(=O)N(Cc1ccccc1)C(C(=O)O)C(C(=O)O)N(Cc1ccccc1)C(=O)OCC (stereo not drawn)	8%	14%	2%&2%	0%	5.3%	-1%	4%	15%
Cc1nn(Cc2ccccc2)c(C)c1NC(=O)CSc1nc(C2CC2)nc2c1cnn2-c1ccccc1	-2%	4%	20%	-5%	-0.8%	1%	-2%	-5%
CC12CCC(C(=O)NCc3cccnc3)(OC1=O)C2(C)C (stereo not drawn)	8%	-2%	10%	-18%	1.1%	-1%	2%	0%
Cc1ccc(NC(=O)CN2C(=O)COc3ccc(S(=O)(=O)N4CCCCCC4)cc32)cc1C	-1%	.	.	6%	-6.2%	.	1%[46.1 µM]	.
Cc1c(NS(C)(=O)=O)cccc1-c1nc2ccccc2s1	-3%	.	10%[46.1 µM]	-17%	-5.6%	.	?	.
COc1cccc(C(=O)Nc2cccc(C(=O)OCc3cc(=O)n4nc(C5CC5)sc4n3)c2)c1	-4%	.	.	?	0.2%	.	0%[46.1 µM]	.
COc1ccc(-c2cc3ccccc3oc2=O)cc1NC(=S)NC(=O)c1ccc2c(c1)OCCO2	13µM*	6%	5%	-16%	-2.5%	13%	.	-4%
O=c1c2ccccc2ncn1/N=C/c1ccccc1	.	0%	?	?	.	-8%	?	-1%
O=C(NNC1=NCCC1)c1cccc(S(=O)(=O)N2CCOCC2)c1	-4%	14%	5%	0%	1.9%	-2%	.	-15%
COC(=O)c1cccc(NC(=O)c2nn(C(C)C)c(=O)c3ccccc23)c1	7%	-2%	-10%	-4%	4.2%	-14%	-4%	1%
CC1=C(C(=O)Nc2cccc(Cl)c2)C2(CCCCCC2)OC1=O	8%	.	.	-4%	-1.3%	.	-10%[46.1 µM]	.
CCc1ccc(-n2c(CSc3nnnn3-c3ccccc3)nc3ccccc3c2=O)cc1	6%	-9%	14%	-18%	-0.8%	6%	-8%	-2%
COc1ccccc1NS(=O)(=O)c1cccc2cccnc12	6%	-2%	.	10%	-5.0%	0%	.	-1%
Cc1ccc(CNC(=O)NCc2noc3ccc(C)cc23)cc1	-4%	.	.	-11%	-1.8%	.	4%[46.1 µM]	.
Cc1ccccc1-n1nnnc1SCC(=O)N(C)C1CCS(=O)(=O)C1 (stereo not drawn)	.	4%	?	0%	.	.	8%[46.1 µM]	-3%

Pulled by compound from the list above (2):
SMILES	Cruzain inh noDet	SARS PLpro yeast	MARV entry inh	StopGo reporter	Cruzain inh Det	NS1 function inh	Lassa entry inh	RE007 growth inh
CNc1nc(C)c(C(=O)OCC(=O)OC)s1	-14%	12%	30%	24%	-3.7%	-2%	12%	-20%
COC(=O)C1=C(C)NC(=O)NC1c1ccccc1Cl (stereo not drawn)	.	3%	.	-13%	.	12%	.	2%

Next part.
SMILES	Cruzain inh noDet	SARS PLpro yeast	MARV entry inh	StopGo reporter	Cruzain inh Det	NS1 function inh	Lassa entry inh	RE007 growth inh
COc1cc(C2C(C#N)=C(N)Oc3n[nH]c(-c4ccncc4)c32)cc(OC)c1OC (stereo not drawn)	-16%	5%	?	-28%	0.4%	-11%	4%	-15%
Cc1ccc(C)c(NC(=O)c2ccccn2)c1	-1%	-4%	8%	57%[activator]	1.5%	-14%	22%	1%
CC(C)CNS(=O)(=O)c1cc(C(=O)OCC(=O)N(C)C2CCS(=O)(=O)C2)c(Cl)cc1Cl (stereo not drawn)	.	-1%	.	43%[activator]	.	-7%	.	-7%
Cc1cc2ncn(CC(O)COc3cccc(C(=O)O)c3)c2cc1C (stereo not drawn)	-15%	1%	0%	15%	1.7%	0%	5%	-6%
COc1ccc(CNC(=O)CCCN2C(=O)CCn3nc(-c4cn(C)c5ccccc45)cc32)cc1	15%	.	.	-4%	-0.6%	.	6%[46.1 µM]	.
COC(=O)c1cccc(S(=O)(=O)N2CCOCC2)c1	-4%	9%	-2%&-2%	-5%	5.9%	1%	1%	2%
O=c1c2ccccc2nnn1CSc1nnc2ccccn12	-7%	1%	?	49%[activator]	2.2%	-3%	-12%	-2%
CCOC(=O)C1=C(C)NC(C)=C(C(=O)OC)C1c1ccco1 (stereo not drawn)	.	-1%	9%[46.1 µM]	-4%	.	1%	-16%	-11%
C/C(CC(=O)NCCCN1CCOCC1)=N\NC(=O)COc1ccc(C)cc1	-7%	?	-5%	-3%	2.3%	-1%	-4%	6%
COc1cccc(C(=O)NC2CCCC2)c1	.	0%	9%	19%	.	5%	0%	0%
Cc1csc(Cn2c(CN(C)C)nc3ccccc3c2=O)n1	2%	2%	8%	-2%	0.9%	6%	4%	1%
CCCN1CCN(C(=O)CS(=O)(=O)Cc2nc(-c3cccc(OC)c3)oc2C)CC1	.	?	-9%[46.1 µM]	-21%	.	27%	2%[46.1 µM]	-4%
CC(=O)Oc1ccc(C(=O)[C@H]2[C@H]3C(=O)N(c4ccc(C)cc4C)C(=O)[C@H]3[C@@H]3C=CC=NN32)cc1	.	0%	-1%[46.1 µM]	-28%	.	11%	-4%	9%
COc1ccc(C(=O)NCCNc2nc3ccc(C)cc3cc2C#N)cc1	.	8%	.	-11%	.	7%	.	3%
Oc1cc(NCc2cccnc2)ccc1-c1nc2ccccc2o1	-11%	-15%	?	24%	-8.3%	-51%	?	-30%
Cc1ccc(O)c(CN2CCN(c3ccccc3)CC2)c1	1%	-1%	?	?	0.4%	-6%	12%	-4%
CC(=O)Nc1ccc(C2CC(c3ccc(Cl)cc3)=NN2c2ccccc2)cc1 (stereo not drawn)	.	-7%	.	1%	.	1%	.	7%
O=C(CCCCCNC(=O)N1CCn2c1nc1ccccc12)NCc1ccccc1	.	-3%	.	-21%	.	-17%	.	4%
Cc1ccc(N/C=C/c2onc(C)c2[N+](=O)[O-])cc1	.	1%	.	18%	.	-11%	.	-6%
COc1cccc(/C(C#N)=C/c2c(-c3ccc(Cl)cc3)nc3c(C)cccn23)c1	?	-14%	?	-14%	-1.1%	-4%	?	-4%
COc1cc(/C=N/NC(=O)Cn2cnc3ccccc3c2=O)ccc1O	.	0%	-2%	-14%	.	-2%	15%	19%
CCOc1nc(NCCO)nc(Nc2ccccc2F)n1	.	0%	.	13%	.	-2%	.	-20%
CC(C)C[C@H](NC(=O)OC(C)(C)C)C(=O)N[C@@H](CO)[C@H](O)[C@@H]1C[C@@H]1C(=O)N(C)C	.	6%	.	5%	.	10%	.	1%
CC(=O)Nc1ccc(S(=O)(=O)N2CCN=C2SCc2ccccc2C)cc1	.	-6%	?	?	.	15%	?	1%
Cc1cc(C)c2sc(NC(=O)C3=COCCO3)nc2c1	.	-18%	.	2%	.	-35%	?	?
O=C(Nc1ccc2c(c1)OCCO2)C1CC(c2ccc(F)cc2)=NO1 (stereo not drawn)	.	-5%	.	8%	.	-4%	.	2%
O=C(Nc1ccccc1Cl)c1ccc(-n2cccn2)c([N+](=O)[O-])c1	.	-1%	-12%[46.1 µM]	8%	.	-7%	1%	-10%
COc1cc(/C=C/C(=O)NCCc2ccc(S(N)(=O)=O)cc2)ccc1OCC#N	.	-1%	.	-15%	.	3%	.	10%
CC(C)NCCOCCSc1ccc(Cl)cc1	3%	-11%	?	-11%	1.5%	4%	5%	-22%
COc1ccc(/C=N/Nc2ccc([N+](=O)[O-])cc2)cc1O	.	-6%	9%[46.1 µM]	11%	.	-64%	?	?
COCCCNc1nc(N)c([N+](=O)[O-])c(N2CCCCCC2)n1	.	8%	.	-20%	.	-6%	.	8%
CS(=O)(=O)N(CC(=O)N1CCCCC1)c1sc2c(c1C#N)CCCC2	-3%	12%	-20%	-27%	0.0%	-11%	-4%	-10%
C=CCc1cccc(/C=N/NC(=O)CNc2ccccc2)c1O	?	.	?	14%	3.1%	7%	?	-18%
COCCN(C(=O)c1ccccc1)c1nnc(-c2cccnc2)s1	1%	5%	13%	21%	2.1%	-4%	25%	0%
CNC(=O)COc1coc(CN2CCN(Cc3ccccc3)CC2)cc1=O	.	-2%	.	-12%	.	7%	.	-1%

Bioassay records from PubChem.
